# KCNQ2 block – KCNQ2 channel blockers in CHO-K1 cells – cell-based, FluxOR thallium flux, B-score, primary screen (AID 2156) | 20 min; active compounds read low; only compounds with negative scores are shown here; some inactives read as strong as hits | 310,000 compounds, 1.1% hits | O88943 | B-score at 10 µM;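 active = fluorescence ratio B-score at most minus 3 library SDs, with starting brightness B-score within 2 library SDs, cut at about -5.5 in these data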
# Target sequence (O88943 whole entry, looked up): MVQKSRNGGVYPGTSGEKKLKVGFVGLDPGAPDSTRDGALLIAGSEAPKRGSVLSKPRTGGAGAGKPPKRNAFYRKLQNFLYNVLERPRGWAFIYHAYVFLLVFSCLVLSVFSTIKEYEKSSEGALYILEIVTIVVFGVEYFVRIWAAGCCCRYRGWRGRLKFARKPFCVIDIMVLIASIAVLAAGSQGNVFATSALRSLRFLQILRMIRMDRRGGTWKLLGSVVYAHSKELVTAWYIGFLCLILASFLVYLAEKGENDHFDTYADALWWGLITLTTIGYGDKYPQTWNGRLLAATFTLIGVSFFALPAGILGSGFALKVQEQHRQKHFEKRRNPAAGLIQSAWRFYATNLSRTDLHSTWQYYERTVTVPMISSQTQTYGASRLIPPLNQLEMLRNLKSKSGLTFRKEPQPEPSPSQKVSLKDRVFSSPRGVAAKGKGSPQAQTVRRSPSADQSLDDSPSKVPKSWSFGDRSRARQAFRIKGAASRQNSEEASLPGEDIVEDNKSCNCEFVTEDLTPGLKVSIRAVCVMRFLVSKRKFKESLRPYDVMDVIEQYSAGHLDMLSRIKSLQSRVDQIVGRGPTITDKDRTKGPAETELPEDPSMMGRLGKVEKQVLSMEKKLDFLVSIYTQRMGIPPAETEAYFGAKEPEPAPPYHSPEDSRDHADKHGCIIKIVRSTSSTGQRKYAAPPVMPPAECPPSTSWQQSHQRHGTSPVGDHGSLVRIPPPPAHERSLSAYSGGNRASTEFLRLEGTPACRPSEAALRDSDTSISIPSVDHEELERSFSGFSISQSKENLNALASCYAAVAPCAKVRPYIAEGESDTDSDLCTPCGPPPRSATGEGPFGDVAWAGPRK
# KCNQ2 block baseline – further read-out of KCNQ2 block, marked with its call; B-score; measured here: initial fluorescence intensity artifact check;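 brightness before thallium and not channel activity; 0 = typical well and far values either way flag optical interference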
# The depositor's hits bear a star; i = inactive.
# Under each structure – KCNQ2 block | KCNQ2 block baseline
Cc1nn(-c2ccccn2)c2c1C(c1ccsc1)C1=C(CCCC1=O)N2 (stereo not drawn)
  i | -1.4
CC(=O)c1cccc(NC(=O)CN2C(=O)c3ccccc3C2=O)c1
  i | 0.93
CN/C=C1\C(=O)C(C)(C)Oc2ccc3ccc(=O)oc3c21
  i | 1.3
CC(Oc1ccc2c(c1)c1ccnc3c4ccccc4c(=O)n2c13)C(=O)NCCN1CCOCC1 (stereo not drawn)
  i | -0.81
Cc1nnc(SCC(=O)NCCOc2ccc(Cl)cc2)n1-c1ccccc1
  i | 0.22
N#Cc1ccc(-c2nnnn2-c2ccc3c(c2)OCO3)cc1
  i | 0.5
N/C(=N\c1nc(CSc2ccccn2)cc(=O)[nH]1)Nc1ccc(Cl)cc1Cl
  i | 0.13
Cc1ccc(OC(=O)C2CSC3(C)CCC(=O)N23)c(Br)c1 (stereo not drawn)
  i | 1.6
CCOc1ccc(-c2nc(N)ncc2Oc2cccc(OC)c2)c(O)c1
  i | 0.96
CC(C)OC(=O)C(C)(C)Oc1ccc(C(=O)c2ccc(Cl)cc2)cc1
  -8.1* | 0.13*
Cc1cc2n(n1)SC(Nc1cc(Cl)ccc1Cl)N2 (stereo not drawn)
  i | 0.4
Cc1ccc(C2=[N+]([O-])C3(CCCCC/C3=N\NC(N)=S)N(O)C2(C)C)o1 (stereo not drawn)
  i | 0.62
Cc1cc(C)c2c(N)c(C(=O)c3cccc(Cl)c3)sc2n1
  i | -1.1
Cc1ccc(SCCN2CCC(C)CCC2=O)cc1 (stereo not drawn)
  i | 2.5
CN(C(=O)COC(=O)CN1C(=O)c2ccccc2C1=O)c1c(N)n(Cc2ccccc2)c(=O)[nH]c1=O
  i | 1.4
Cc1cccc(C)c1NC(=O)C(=O)NCC1CCCN1S(=O)(=O)c1ccccc1 (stereo not drawn)
  i | 1.5
COc1ccc(C(c2nnnn2CC2CCCO2)N2CCN(c3cccc(C)c3C)CC2)cc1 (stereo not drawn)
  i | -0.03
Cc1ccc(CNC(=O)c2cn(C3CCCCC3)c(=O)c3c2c2ccccc2n3C)o1
  i | -2.1
Cc1nc2c(=O)n(-c3cccc(C(F)(F)F)c3)nc(C)c2s1
  i | 1.6
O=C(C1CCN(c2nc(-c3ccccc3)nc3c2CCC3)CC1)N1CCC(O)CC1
  i | -1.8

# Pulled by compound from the list above (2):
# Under each structure – KCNQ2 block | KCNQ2 block baseline
O=C(C1CCN(c2nc(-c3ccccc3)nc3c2CCC3)CC1)N1CCC(O)CC1
  i | -1.8
Cc1cc(C)c2c(N)c(C(=O)c3cccc(Cl)c3)sc2n1
  i | -1.1

# More records:
# Under each structure – KCNQ2 block | KCNQ2 block baseline
CCCn1c(C)cc(C(=O)COC(=O)c2c(C)nn(-c3ccccc3)c2C)c1C
  i | 0.02
CC(C)C(NC(=O)c1ccc(F)cc1)C(=O)NCC1CCCO1 (stereo not drawn)
  i | 0.24
c1coc(CNc2ncnc3nc[nH]c23)c1
  i | -0.84
CCOc1c(Nc2ccccc2O)c(=O)c1=O
  i | 0.73
CCOC(=O)CSc1nc(N(C)C)nc(N(C)C#N)n1
  i | -1.9
COc1ccc2nc(N3CCN(C(=O)c4ccc5ncsc5c4)CC3)sc2c1
  i | 0.59
Cc1nn(CC2CC2)c(=O)n1-c1ccccc1
  i | 1.5
Cc1cc(=O)oc2c3c(cc(OCC(=O)NCC(=O)O)c12)OC(C)(C)CC3
  i | -4.5
CC(C)N(C(=O)CSc1nnc(NC(=O)c2cccs2)s1)C(C)C
  i | 0.72
COCCCN=CC1=C(O)CC(c2ccccc2)CC1=O (stereo not drawn)
  i | 0.11
CC(=O)Nc1ccc(S(=O)(=O)N2CCCN(c3nc(C)cc(C)c3C#N)CC2)cc1
  i | 1.6
COc1ccc(CN(C)CC(=O)Nc2ccccc2C(F)(F)F)c(OC)c1
  i | 5.1
COc1ccccc1C(=O)N1C(CC(=O)Nc2ccc(C)c(C)c2)C(=O)NC2CCCCC21 (stereo not drawn)
  i | 0.19
CC(=O)[C@H]1[C@H](c2cccc(Cl)c2)C(C#N)(C#N)[C@@H]2c3ccccc3C=CN21
  i | 2
Cc1onc(-c2ccccc2)c1-c1ccnn1C(=O)NC(C)C
  i | 0.23
Cc1ccc(/C(N)=N/OC(=O)C23CC4CC(CC(C4)C2)C3)cc1
  i | 0.4
CCCc1cc(=O)oc2c3c(cc(OCC(=O)NCCN4CCOCC4)c12)OC(C)(C)CC3
  i | -0.86
COCCN(C(=O)CSc1nc(N)cc(=O)[nH]1)c1c(N)n(Cc2ccccc2)c(=O)[nH]c1=O
  i | -1
COc1ccc(OC)c(NC(=O)c2ccc(NS(=O)(=O)c3c(C)noc3C)cc2)c1
  i | 1.9
c1ccc(CN(Cc2ccccc2)c2nn[nH]n2)cc1
  i | -0.63

# Compound profiles, from the list above:
# `CCCn1c(C)cc(C(=O)COC(=O)c2c(C)nn(-c3ccccc3)c2C)c1C` in the list: KCNQ2 block: i; KCNQ2 block baseline: 0.02
# `CC(C)C(NC(=O)c1ccc(F)cc1)C(=O)NCC1CCCO1` (stereo not drawn) in the list: KCNQ2 block: i; KCNQ2 block baseline: 0.24

# The results go on.
# Under each structure – KCNQ2 block | KCNQ2 block baseline
CC(=O)Nc1ccc(NC(=O)C2CCCN2S(=O)(=O)c2cccc(C(F)(F)F)c2)cc1 (stereo not drawn)
  i | 1.5
CC(C)Oc1cccc(C(=O)NC(=S)Nc2ccc(N3CCN(C)CC3)cc2)c1
  i | 1.7
COc1ccc(NC2=CC(=O)CC(c3ccc(C)cc3)C2)c(OC)c1 (stereo not drawn)
  i | 1.6
CC(C)(C)OC(=O)N/N=C\c1ccc(OC(=O)c2cccs2)cc1
  i | 0.95
COc1cc(-c2c(C#N)c(N)nc(SCc3ccncc3)c2C#N)cc(OC)c1OC
  i | 0.62
O=C(NCc1ccccc1)C(=O)NCC1OCCCN1S(=O)(=O)c1cccs1 (stereo not drawn)
  i | 0.4
CCc1cccc(NC(=O)c2cc(OC)c(OC)c(OC)c2)c1
  i | 2.5
O=c1[nH]c(/C=C/c2ccc([N+](=O)[O-])cc2)c([N+](=O)[O-])c(=O)[nH]1
  i | -1.6
O=C1CN(C(=O)c2ccc(Br)o2)C(c2ccc(F)cc2)c2cc(F)ccc2N1 (stereo not drawn)
  i | 0.16
COc1ccc(C2c3c(ccc4ccccc34)Oc3ncn4nc(Cc5ccccc5)nc4c32)cc1OC (stereo not drawn)
  i | -1
C[n+]1ccn(CC(=O)c2ccc(Br)cc2)c1
  i | -1.8
CC1CCCCN1CCNC(=O)CN1C(=O)COc2ccccc21 (stereo not drawn)
  i | -0.32
CCO[C@H]1OC(C(=O)NC2CC2)=C[C@@H](c2coc3ccccc3c2=O)[C@@H]1CCCO
  i | 0.49
Nc1ccc2c(c1)N1CCN=C1S2
  i | -0.18
CN(C)CC(=O)Nc1ccc2cn[nH]c2c1
  i | -1.1
NC(=O)C1CCN(S(=O)(=O)c2ccccc2[N+](=O)[O-])CC1
  i | 1.4
CCOc1ccc(NC(=O)C2CCCN2C(=O)OCc2ccccc2)cc1 (stereo not drawn)
  i | -1
NC(=O)COc1ccccc1/C=C1/SC(=O)N(CC(=O)N2CCc3ccccc3C2)C1=O
  i | -0.23
Cc1ccc[n+](CC(=O)c2ccc(NC(=O)c3ccccc3)cc2)c1
  i | 3.4
Cc1ccccc1OCc1nc(-c2ccc(Br)o2)no1
  i | 2.2

# 4 entries from above, with each value named.
O=C(NCc1ccccc1)C(=O)NCC1OCCCN1S(=O)(=O)c1cccs1 (stereo not drawn)
  KCNQ2 block: i
  KCNQ2 block baseline: 0.4
CCc1cccc(NC(=O)c2cc(OC)c(OC)c(OC)c2)c1
  KCNQ2 block: i
  KCNQ2 block baseline: 2.5
O=c1[nH]c(/C=C/c2ccc([N+](=O)[O-])cc2)c([N+](=O)[O-])c(=O)[nH]1
  KCNQ2 block: i
  KCNQ2 block baseline: -1.6
O=C1CN(C(=O)c2ccc(Br)o2)C(c2ccc(F)cc2)c2cc(F)ccc2N1 (stereo not drawn)
  KCNQ2 block: i
  KCNQ2 block baseline: 0.16

# New compounds follow.
structure	KCNQ2 block	KCNQ2 block baseline
CSc1c(CC(=O)Nc2ccc(F)cc2)n(Cc2ccccc2)c2ccccc12	i	0.58
COc1ccc(S(=O)(=O)Nc2ccc(C)cc2)cc1N(C)S(=O)(=O)c1ccc(Cl)cc1	i	0.22
CCn1c(C)c(C)c2cc(C(=O)NC3CCCCCC3)ccc21	i	0.09
O=C(CNC(=O)c1ccc(Cl)cc1)N/N=C/c1cccnc1	i	-0.87
CCOc1ccc(CNC(=O)CCS(=O)(=O)c2ccc3c(c2)NC(=O)CO3)cc1OC	i	-0.01
O=S(=O)(c1cccs1)N1CCN(c2ccc(O)cc2)CC1	i	1.3
O=C(NC(=S)Nc1ccc(Cc2ccncc2)cc1)c1ccc(F)cc1	i	0.84
COc1ccc(CCNC(=O)c2cc(-c3ccccc3)c(N3CCOCC3)s2)cc1OC	i	0.26
O=C(CSc1cccc[n+]1[O-])C12CC3CC(CC(C3)C1)C2	i	0.02
Cc1oc2c(cc(NS(=O)(=O)c3ccc(C(C)C)cc3)c3ccccc32)c1C(=O)O	-5.8*	1.8*
Cc1ccc(S(=O)(=O)N2CCN(C(=O)c3nn(C(C)C)c(=O)c4ccccc34)CC2)cc1C	i	-0.62
Cn1c(SCC(=O)NNC(=O)Nc2ccccc2)nnc1-c1ccccc1	i	1.7
CN(C(=O)COC(=O)c1ccc(=O)n(Cc2ccccc2)n1)C1CCS(=O)(=O)C1 (stereo not drawn)	i	-0.11
O=Cc1ccc(C(=O)OCC(=O)NCCC2=CCCCC2)cc1	i	0.88
COc1ccc(C(=O)Nc2ccccn2)cc1S(=O)(=O)N1CCOCC1	i	-0.66
CCCc1cc(=O)oc2c3c(cc(OCC(=O)NCc4ccccn4)c12)OC(C)(C)CC3	i	1.3
CC(C)c1nc(SCC(=O)Nc2ccc(N(C)C)cc2)c2ccccc2n1	i	-0.11
O=C(c1ccc2c(c1)OCCO2)N1CCCC(CNS(=O)(=O)c2cccs2)C1 (stereo not drawn)	i	-0.01
Cc1ccc(-n2nnnc2SCC(=O)NC(=O)Nc2ccc3c(c2)OCCO3)cc1	i	-1.4
Cn1ccnc1Sc1ccc(/C=N/NC(=O)c2ccccc2O)cc1[N+](=O)[O-]	i	0.12

# The list goes on:
structure	KCNQ2 block	KCNQ2 block baseline
Cc1ccc(C(=O)N2CCN(S(=O)(=O)c3cc(Br)ccc3Br)CC2)o1	i	-0.18
O=C(OC1CCN(c2ncc(C(F)(F)F)cc2Cl)CC1)c1ccccc1	i	0.65
CCOC(=O)c1c(CN2CCN(c3ccccc3)CC2)oc2cc(Br)c(O)cc12	i	1.4
N#C/C(=C\c1ccc(-c2ccccc2[N+](=O)[O-])o1)C(N)=O	i	1.6
Cc1ccc(-c2noc(CSc3nnc(Cc4ccccc4)n3-c3ccc(Cl)cc3)n2)cc1	i	-0.75
Cc1c(C(=O)/C=C/c2cccs2)oc2ccc(F)cc12	i	-0.77
O=C(CCCc1nc(-c2ccccc2Cl)no1)NC1CCCC1	i	-0.02
CNC(=O)C(=O)NCC1OCCN1S(=O)(=O)c1ccc2c(c1)OCCO2 (stereo not drawn)	i	0.05
CC(NC(=O)C(=O)NCCN1CCN(C(=O)c2ccccc2Br)CC1)c1ccccc1 (stereo not drawn)	i	-0.16
CC(=O)c1ccc(NC(=O)COC(=O)c2ccccc2Nc2ccccc2)cc1	i	-2.1
Cc1cc(C)nc(SCC(=O)Nc2ccc(N3CCOCC3)cc2)n1	i	-0.24
CS/C(=C\[N+](=O)[O-])Nc1ccccc1	i	0.47
CCCC(=O)NCCc1nc2ccccc2n1C	i	-0.27
S=C(NCc1ccccc1)NCc1ccccc1Cl	i	-1.6
CCCC(=O)NC(=S)Nc1ccccc1C(=O)OC	i	1.1
O=C(CSc1nnc(CNC(=O)c2c(F)cccc2F)o1)NCC1CCCO1 (stereo not drawn)	i	-0.33
CCc1ccc(-c2cc(C(F)(F)F)n3nc(C(=O)Nc4c(C)nn(Cc5ccccc5C)c4C)cc3n2)s1	i	-0.48
Cc1cc(C)nc(SCc2ccc(C(=O)N/N=C/c3ccccn3)cc2)n1	i	0.67
O=C(NCCNc1ccc([N+](=O)[O-])cc1)c1ccc(Cl)cc1	i	-0.29
COc1ccccc1NS(=O)(=O)c1ccc(NC(=O)Cc2cccs2)cc1	i	1.1

# Going on with the list:
structure	KCNQ2 block	KCNQ2 block baseline
O=C(NCCCN1CCOCC1)c1ccc(N2CCOCC2)c([N+](=O)[O-])c1	i	2.2
Cn1c2ccc(F)cc2c2ncn(CC3CCCO3)c(=O)c21 (stereo not drawn)	i	1.3
CCCn1c(/C=C/c2ccco2)nc2ccccc21	i	1.5
Cc1ccc(C(C(=O)NC2CCCCC2)N(C(=O)c2csnn2)C2CC2)cc1 (stereo not drawn)	i	-1.5
COc1ccccc1NC(=O)C(C)OC(=O)CCCc1c[nH]c2ccccc12 (stereo not drawn)	i	-0.28
CCN1CCN(C(=O)C2COc3ccccc3O2)CC1 (stereo not drawn)	i	0.59
Fc1ccc(CNc2ccc(CNc3ncn[nH]3)cc2)cc1	i	-0.93
CC(O)(C#CCN1CCCCCC1)c1ccccc1 (stereo not drawn)	i	-0.65
CCOC(=O)c1ccccc1NC(=O)N1CCn2c(C)ccc2C1CC (stereo not drawn)	-6.2*	0.57*
Cc1noc(C)c1COc1ccccc1C(=O)NNC(=O)C(C)Oc1ccccc1F (stereo not drawn)	i	-1.5
Cc1cc(C)c(S(=O)(=O)NC(CC(=O)O)c2cccc([N+](=O)[O-])c2)c(C)c1 (stereo not drawn)	i	0.03
CNC(=O)N1c2ccccc2NC(=O)CC1C (stereo not drawn)	i	0.18
COc1ccccc1CC(=O)Nc1cc2oc3ccccc3c2cc1OC	i	-1.6
COc1ccc(OC)c(NC(=O)C2CCCN(S(=O)(=O)c3cccc4cccnc34)C2)c1 (stereo not drawn)	i	-0.19
N#C/C(=C\c1cn(-c2ccccc2)nc1-c1cccnc1)c1nnc2n1CCCCC2	i	-1.9

# Screening data as filed in PubChem.

# This is a subset; count on the stated rates, not on these rows.
